gsp ag = qHTS for Agonist of gsp, the Etiologic Mutation Responsible for Fibrous Dysplasia/McCune-Albright Syndrome: qHTS | gsp mutant cells, cAMP HTRF, 30 min; control for the full effect not named in the record | 0.13% of 340,000 active | Potency, µM (doses to about 76.9 µM), for the others: top-dose activation (cAMP increase), most hits filed as activators; active = well fitted activation curve with a large enough effect; inconclusive = small, poorly fitted or top-dose-only effect, or another doubt; inactive = no such curve, though single readings can be large or run the other way; cell line not stated here;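 note: phosphodiesterase inhibitor Ro 20-1724 added with compounds to block cAMP breakdown; potency is the fitted concentration of half-maximal effect; nearly all actives have a fitted effect of over 60% in size; about a fifth of the inactives were tested at one dose only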
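Cells stably selected in G418 were plated at 2000/well, grown 16-24 hr, then given compounds in DMSO with the PDE inhibitor […] (300 uM solution added) for 30 min at 37C; cAMP was read by HTRF.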
gsp antag = qHTS for Antagonists of gsp, the Etiologic Mutation Responsible for Fibrous Dysplasia/McCune-Albright Syndrome: qHTS; Potency, µM (series often up to 76.9 µM), for the others: at the top dose activity change, negative = inhibition, actives largely listed as inhibitors; AID 624288, 2012; 0.4% of 340,000 active; gsp-mutant cells, cAMP HTRF, 30 min; control for the full effect not named in the record; active = falling curve of any shape with a large fitted effect; inconclusive = falling curve, mostly with a smaller effect; inactive = flat or rising curve; cell line not stated here;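 note: intracellular cAMP measured with PDE inhibitor Ro 20-1724 present during compound exposure; potency is the fitted concentration of half-maximal effect; % is set by controls: 0 for no effect and ±100 for the full control effect; nearly all actives have a fitted effect of over 65% in size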
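HTRF cAMP measurement after 30 min RT detection following 30 min, 37C compound treatment alongside […] (added as 300 uM solution) in G418-selected cells seeded at 2000/well and grown 16–24 h.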
TRPML1 ag = qHTS for Agonists of the Human Mucolipin Transient Receptor Potential 1 (TRPML1). Mucolipin-1 (Homo sapiens), Q9GZU1. TRPML1-expressing cells, Ca2+ dye fluorescence, FDSS; host cell line not named in the record; reference of the full effect not given here. activation, % (concentration not given with the values). 0.12% of 410,000 active. AID 624414, 2012; in the data active = activation above about 50%; inconclusive = about 30% to 50%; inactive = below about 30%; note: 0% is about no effect; the text of the record puts the active cut at 80%
Target sequence (Q9GZU1 whole entry, looked up): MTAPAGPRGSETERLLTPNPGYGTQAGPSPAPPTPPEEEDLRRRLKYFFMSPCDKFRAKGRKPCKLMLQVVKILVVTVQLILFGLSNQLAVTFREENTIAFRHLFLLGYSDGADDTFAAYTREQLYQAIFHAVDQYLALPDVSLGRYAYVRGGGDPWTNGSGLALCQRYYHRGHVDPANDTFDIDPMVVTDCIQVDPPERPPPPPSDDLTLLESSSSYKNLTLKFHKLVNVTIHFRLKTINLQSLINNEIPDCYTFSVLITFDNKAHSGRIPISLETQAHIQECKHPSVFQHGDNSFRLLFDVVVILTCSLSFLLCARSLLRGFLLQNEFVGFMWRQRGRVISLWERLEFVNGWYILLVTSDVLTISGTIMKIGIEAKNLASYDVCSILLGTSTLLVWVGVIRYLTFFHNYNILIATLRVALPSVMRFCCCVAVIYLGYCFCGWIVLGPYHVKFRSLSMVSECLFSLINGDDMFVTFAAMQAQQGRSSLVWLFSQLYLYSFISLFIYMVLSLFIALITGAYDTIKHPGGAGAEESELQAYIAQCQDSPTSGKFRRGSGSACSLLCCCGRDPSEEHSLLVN
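Cells: TRPML1-DL, 1X Tet inducer, ~16 h at 37 degrees C/5% CO2. Dye: ABD Ca8 no-wash + quencher, 45-90 min RT. Read: 10 s baseline, compound add, 110 s agonist phase; 54-4 EC80 (4uM final), 110 s antagonist phase.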
TRPML1 inh = qHTS for Inhibitors of the Human Mucolipin Transient Receptor Potential 1 (TRPML1). Mucolipin-1 (Homo sapiens), Q9GZU1. TRPML1-inducible cells, Ca2+ dye fluorescence, FDSS; stronger effect = lower value; inhibition of EC80 agonist-evoked calcium signal. activity change, negative = inhibition, % (test concentration not listed). 0.02% of 390,000 active. AID 624415, 2012; in the data active means activity change below about -50%; inconclusive means about -30% to -50%; inactive means above about -30%;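 note: stimulus is agonist 54-4 at its EC80 concentration; % is set by controls: 0 for no effect and ±100 for the full control effect; compound concentration not given in the record; the text of the record puts the active cut at -80%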
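TRPML1-DL cells, Tet-induced overnight (~16 h, 37 °C) at 1,500 cells/well, were loaded with Ca8 no-wash dye plus quencher for 45-90 min at room temperature. Compounds were pinned during FDSS kinetic reading; agonist 54-4 at EC80 (4 uM final) then added.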
Menin MLL FP FL = qHTS Assay for Inhibitors Targeting the Menin-MLL Interaction in MLL Related Leukemias: Competition With Fluorescein Labeled MLL-derived Peptide; 290,000 tested, under 10 active; Fluorescence polarization, fluorescein-MLL peptide displacement from menin; FP activity change, % at 61.4 µM; inconclusive = falling polarisation curve, or a change in total fluorescence; inactive = total fluorescence flat and polarisation flat or rising; no compound was filed as active; the % refers to the polarisation; negative = inhibition;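 note: % of control where 0% means no effect; inhibitors lower the polarisation; unlabelled MLL peptide was the positive control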
ClpP mod = qHTS Assay for Activators of ClpP; ATP-dependent Clp protease proteolytic subunit (Bacillus subtilis (strain 168)), P80244; purified B. subtilis ClpP, FRET peptide cleavage, 20 min; Potency, µM (top dose mostly 57.5 µM), without a hit: top-dose activity change, negative = active; 1.9% of 340,000 active; AID 651965, 2013; active = well fitted falling curve with a large enough effect; inconclusive = small, poorly fitted or top-dose-only effect; inactive = no such curve, though single readings can be large or run the other way; note: potency is the fitted concentration of half-maximal effect; the source files actives as falling curves though it sought activators and does not explain the sign; nearly all actives have a fitted effect of over 65% in size; many hits overshoot -100%
Target sequence (P80244 whole entry, looked up): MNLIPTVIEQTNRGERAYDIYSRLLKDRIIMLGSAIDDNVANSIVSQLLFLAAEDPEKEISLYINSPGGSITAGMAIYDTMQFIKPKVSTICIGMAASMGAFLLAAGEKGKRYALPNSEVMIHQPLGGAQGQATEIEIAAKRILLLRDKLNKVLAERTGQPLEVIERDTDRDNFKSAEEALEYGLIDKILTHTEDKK
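ClpP 10 microg/mL final, pH 8 Tris/KCl buffer with BSA, glycerol, Tween-20; compound pinned in; FRET-FV substrate; RT 20 min; Ex320/Em430; ΔFRET vs ADEP 5.8 microM, DMSO, no enzyme.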
* hit, by the source's call; u = inconclusive; x = not tested or not shown; [ ] = remark or other dose. No enrichment for hits; any-hit rate near 2.1%.

SMILES | gsp ag | gsp antag | TRPML1 ag | TRPML1 inh | Menin MLL FP FL | ClpP mod
O=C(c1ccc2nc3ccccc3c(=O)n2c1)N1CCN(Cc2ccc3c(c2)OCO3)CC1 | 11% | 1% | 0.3 | -9 | 3.2 | 20µM*
CC(=O)NCCCC(=O)NC(CCC(=O)OCc1ccccc1)C(=O)OCc1ccccc1 (configuration not stated) | -26% | 1% | 0.1 | 11 | 5.7 | 1.2%
CN(C)CCCNCCCNC(=O)/C(=N\O)c1ccccn1 | -6% | 6% | -0.3 | -2 | -1.0 | -2.4%
COC(=O)c1ccccc1NC(=O)CN1CCN(c2ccccn2)CC1 | 12% | -4% | 0.9 | -2 | -1.6 | x
COc1cccc(-c2nnn(CC(C)=O)n2)c1 | 0% | 0% | 1.5 | 5 | -2.3 | 1.1%
Cc1ccc(NS(=O)(=O)c2ccc3[nH]c4c(c3c2)CCCCCC4)cc1 | x | x | 1.2 | -3 | x | -6.2%
CS(=O)(=O)N1CCN(c2ccc(NC(=O)c3ccc(Br)o3)cc2)CC1 | 3% | -7% | -0.4 | 9 | 3.3 | -0.8%
O=C(CCN1C(=O)/C(=C/c2ccccc2Cl)SC1=S)NC1CCS(=O)(=O)C1 (configuration not stated) | 30% | 2% | -0.3 | 29 | -0.1 | -16%
CC1CCCCC1NC(=O)Cn1c(=O)cnc2ccccc21 (configuration not stated) | u | -3% | -0.7 | -1 | x | x
CNc1cc(CS(=O)c2ccccc2)nc(-c2ccccc2)n1 (configuration not stated) | -31%[inhibitor] | 5% | 1.3 | 16 | 2.5 | -2.4%
Cc1ccc(-n2nnc(-c3cccnc3)n2)cc1 | 29% | 4% | -0.9 | 24 | x | 2.5%
CC(C)(C)c1cc(CCC(=O)NNC(=O)c2ccncc2)cc(C(C)(C)C)c1O | 2% | 8% | 3.3 | -6 | x | -2.4%
CCc1ccc(N2CC(C(=O)Nc3ccc(S(=O)(=O)Nc4nccs4)cc3)CC2=O)cc1 (configuration not stated) | -12% | -2% | -0.3 | -2 | 0.2 | x
CCC(C)C(=O)Nc1cc(C(=O)OC)ccc1C(=O)OC (configuration not stated) | 11% | 4% | -0.9 | 3 | 2.1 | u
O=C(CSc1nnc(-c2ccc(Cl)cc2)o1)c1ccc([N+](=O)[O-])cc1 | x | x | 1.4 | -18 | x | 0.4%
COc1cc(-n2nc(C)c3c2OC(N)=C(C#N)C3c2ccccc2)c(Cl)c(Br)c1O (configuration not stated) | -30% | -7% | 1.7 | 8 | u | -1.4%
Cc1ccc(OCCN2CCN(C(=O)CCC(=O)Nc3nnc(C(C)C)s3)CC2)cc1 | -19% | -7% | -0.2 | 2 | 5.4 | 0.8%
O=C(Nc1ccc(C(=O)O)cc1)/C(=C\c1ccco1)NC(=O)c1ccc(Br)cc1 | 0% | x | -0.7 | 3 | x | -0.1%
Cc1cccc(N(C(=O)CCC(=O)Nc2cc(C)on2)C(C(=O)NC2CCCC2)c2ccncc2)c1 (configuration not stated) | 0% | 5% | -0.4 | -11 | 6.7 | 1.6%
O=C(c1nc2ccc(Cl)cn2c1CNCC[C@@H]1C[C@@H]2C=C[C@H]1C2)N1CCCCCCC1 | -7% | -2% | -0.1 | -7 | 6.9 | x
O=C(NCc1ccc2c(c1)OCO2)c1ccc2snnc2c1 | 2% | 12% | -0.7 | -4 | 1.1 | -0.4%
C/C(CC(=O)Nc1ccc(N(C)C)cc1)=N\NC(=O)c1ccc(F)cc1 | -3% | -2% | -0.2 | -16 | 4.4 | -2.6%
COc1ccccc1-n1c(SCC(=O)NC2CCCC2)nc2cccnc21 | -8% | -7% | 0.3 | -7 | -2.8 | -0.5%
Cc1ccc(OCC(=O)NCc2ccccn2)c(Br)c1 | 3% | 1% | -0.1 | 12 | -4.3 | -2.0%
CCOc1ccc(/C=N/NC(=O)C2(O)c3ccccc3-c3ccccc32)cc1 | -4%[15.4 µM] | 10% | 1.9 | -5 | 0.6 | -0.2%
SMILES | gsp ag | gsp antag | TRPML1 ag | TRPML1 inh | Menin MLL FP FL | ClpP mod
CCOCCc1c(O)nc(SCC(=O)N2CCOCC2)[nH]c1=O | -5% | 7% | 0.1 | -12 | 0.4 | x
Clc1ccc2nc(-c3ccccc3)c(CC3CCCCC3)n2c1 | x | x | 0.1 | 17 | x | u
CC(=O)N1CCc2c(sc3c2c(=O)n(-c2cccc(Cl)c2C)c(=O)n3Cc2ccccc2C)C1 | x | x | 0.7 | 32 | x | -1.1%
CC1Cc2ccccc2N1C(=O)C1CCN(S(=O)(=O)Cc2ccccc2)CC1 (configuration not stated) | -24% | -3% | 3.2 | -3 | 0.4 | 0.1%
CC(C)COC(=O)C1C(=O)CC(C)(O)C(C(=O)OCC(C)C)C1c1cccnc1 (configuration not stated) | -12% | 2% | -0.5 | 6 | 0.4 | -5.0%
Cc1ccccc1/C=N\NC(=O)c1ccccc1-n1cccc1 | 6%[15.4 µM] | x | 1.9 | 11 | -2.4 | x
C=CCN1C(=O)c2ccc(C(=O)N(CCOC)c3c(N)n(CCCC)c(=O)[nH]c3=O)cc2C1=O | 15%[15.4 µM] | 3% | 1.2 | 17 | x | -2.8%
COC(=O)CC1COc2ccccc2N1S(=O)(=O)c1ccc(Br)cc1 (configuration not stated) | 6% | -14% | 3.9 | 63 | 4.8 | -0.9%
OC(CNc1ccccc1)COc1ccc(OCC(O)CNc2ccccc2)cc1 (configuration not stated) | 15% | -9% | 1.2 | 13 | 1.9 | -7.3%
O=C(O)CCCN1C(=O)c2ccc(C(=O)c3cccc([N+](=O)[O-])c3)cc2C1=O | 8% | -6% | -0.3 | 20 | 0.6 | x
CSc1nc(-c2ccco2)nn1C(=O)c1ccccc1Cl | -11%[15.4 µM] | -26% | -0.4 | -14 | 3.4 | x
C[C@@H]1CN([C@@H](C)CO)C(=O)CCCn2nncc2CO[C@H]1CN(C)C(=O)c1ccc(N2CCN(C)CC2)cc1 | -19% | x | -0.7 | 21 | x | 0.4%
CC1=C(C(=O)N(C)C)CC(CC(=O)NC(c2ccccc2)c2ccccc2)C(=O)N1Cc1ccc(F)cc1 (configuration not stated) | -27% | x | -0.4 | 0 | x | 2.2%
CC(C)c1ccc(NC2CCCN(C(=O)CCCn3cncn3)C2)cc1 (configuration not stated) | 9% | 1% | -0.3 | -11 | 2.3 | -1.2%
CCOC(=O)c1cccc(NC(=O)c2ncoc2-c2ccco2)c1 | x | x | 1.3 | -2 | x | -6.9%
O=C1OC(c2ccccc2)(c2ccccc2)c2ccsc21 | 19% | x | 0.1 | 0 | x | 0.1%
CCOc1ccc(NC(=O)COC(=O)CNC(=O)c2ccc(-c3ccccc3)cc2)cc1 | -8% | 2% | 0.2 | 9 | x | -2.1%
Cc1ccc(CNC(=O)CN2CCN(Cc3ccc(Cl)cc3)C2=O)cc1 | -6% | 3% | -0.2 | 18 | -0.3 | -1.5%
Cc1cc(C(=O)Cn2c(CO)nc3ccccc32)c(C)n1C | 9%[15.4 µM] | -3% | 0.7 | 10 | -0.1 | x
COc1ccc(-n2nc3c(c2NC(=O)C2CC2)CS(=O)(=O)C3)cc1 | 8%[15.4 µM] | 2% | 0.5 | -4 | x | -0.4%
CN(C)CCCNS(=O)(=O)c1cc(Cl)c(Cl)cc1Cl | 11% | -3% | 0.0 | -3 | 0.9 | -1.1%
CC(C)N1CCN(Cc2ccc(-c3ccccc3)cc2)CC1CCO (configuration not stated) | -25% | 9% | 0.9 | -7 | -0.3 | x
COC(=O)CCC(=O)N1CCOCCOCCOCC1 | -8%[15.4 µM] | 8% | 0.0 | 57 | 0.4 | x
O=C(O)c1cc(-c2ccc3c(c2)OCCO3)n[nH]1 | 19%[15.4 µM] | 4% | -1.1 | 8 | 1.8 | x
c1ccc(-c2noc(-c3cccnc3)n2)cc1 | -13% | -2% | 0.6 | 11 | -0.6 | -1.7%
SMILES | gsp ag | gsp antag | TRPML1 ag | TRPML1 inh | Menin MLL FP FL | ClpP mod
CCOC(=O)c1sc2ncn(C(CC)C(=O)OCC)c(=O)c2c1C (configuration not stated) | -4% | -2% | 0.2 | -8 | 4.7 | -1.8%
CSC1=NCCN1C(=O)Cc1cccs1 | u | 1% | -0.1 | -15 | 4.6 | -3.4%
CN(C)S(=O)(=O)c1ccc2nnn(OCC(=O)NC3CCS(=O)(=O)C3)c2c1 (configuration not stated) | u | 9% | 0.3 | -5 | x | -0.1%
CCNC(=O)CC1C(=O)N(c2ccc(F)cc2)C(=S)N1CCc1ccncc1 (configuration not stated) | 22% | -5% | -0.2 | -6 | -1.4 | -1.2%
O=C(NC1=NCCS1)c1cc(-c2cccc(Br)c2)nc2ccccc12 | -5% | -20% | 0.4 | -5 | 5.0 | -2.3%
CC(=O)Nc1c(C(=O)c2ccccc2)oc2ccccc12 | -15% | -5% | 1.1 | -1 | -1.0 | 0.1%
CC1CCN(C(=O)c2cc3c(ccc4ccccc43)o2)CC1 | 13% | -11% | 0.3 | 7 | x | -1.4%
CC(=O)Nc1ccc(/C=C/c2nc3ccccc3o2)cc1 | -10% | -13% | 0.8 | 5 | -3.4 | 3.6%
O=C(NNC(=O)C12CC3CC(CC(C3)C1)C2)c1cccc(O)c1 | -7%[15.4 µM] | 7% | 0.9 | 11 | 0.1 | x
COc1ccc(CNC(=O)Cn2c(=O)c3cccn3c3cccnc32)cc1 | x | x | 1.6 | 0 | x | -28%
O=C(NNC(=O)C1CCN(Cc2ccc(Cl)c(Cl)c2)CC1)c1cccs1 | 5%[15.4 µM] | -3% | 0.1 | 8 | 1.3 | u
CCCc1cc(=O)n2[nH]c(C)c(-c3ccccc3)c2n1 | 17% | 1% | 0.0 | 3 | 2.1 | u
Cc1ccc(C(O)C(=O)c2ccco2)cc1 (configuration not stated) | x | 4% | -0.1 | -3 | x | 1.4%
NC(N)=N/N=C/c1ccccc1 | -41%[inhibitor] | 11% | 0.7 | -9 | -0.5 | -0.9%

Among those listed so far, these have a nitro group on carbon.
SMILES | gsp ag | gsp antag | TRPML1 ag | TRPML1 inh | Menin MLL FP FL | ClpP mod
O=C(CSc1nnc(-c2ccc(Cl)cc2)o1)c1ccc([N+](=O)[O-])cc1 | x | x | 1.4 | -18 | x | 0.4%
O=C(O)CCCN1C(=O)c2ccc(C(=O)c3cccc([N+](=O)[O-])c3)cc2C1=O | 8% | -6% | -0.3 | 20 | 0.6 | x

Source: PubChem (National Center for Advancing Translational Sciences (NCATS))
